H5N1 antiviral = antiviral screen in MDCK cells, H5N1 avian flu; 96,000 tested, 0.07% active; inhibition, % at 50 µM; cytopathic effect, luminescence, 72 h; stronger effect = higher value; no value below 0 was filed and about half of the inactive calls have no number; reference of the scale not given here; in the data active = inhibition above about 25%
* hit, by the source's call; i = inactive. Not all compounds are listed, so the mix of outcomes need not match the whole.

Sample of the layout (two entries):
SMILES | H5N1 antiviral
O=C(COc1cccc(NC(=O)c2cccc([N+](=O)[O-])c2)c1)c1ccc(Br)cc1 | i
O=C1c2ccccc2C(=O)N1CC#CCN1CCN(C2CCCCC2)CC1 | 2.7

Results, repeating the preview:
SMILES | H5N1 antiviral
O=C(COc1cccc(NC(=O)c2cccc([N+](=O)[O-])c2)c1)c1ccc(Br)cc1 | i
O=C1c2ccccc2C(=O)N1CC#CCN1CCN(C2CCCCC2)CC1 | 2.7
CCCCn1nnnc1NCc1cccnc1 | 0.4
COc1ccccc1C(=O)N1CCCC(c2nc(-c3cc(OC)c(OC)c(OC)c3)no2)C1 (stereo unspecified) | 0.2
COc1cc(OC)cc(C(=O)N(Cc2nc(-c3cccc(C)c3)no2)C(C)C)c1 | i
COc1ccc(C2C(C#N)=C(C)NC3=C2C(=O)CC(C)(C)C3)c(OC)c1 (stereo unspecified) | 0.1
CCOC(=O)CCc1c(C)c2ccc(OCc3nn[nH]n3)c(C)c2oc1=O | 1.4
Cc1ccccc1NC(=O)c1cccc(OCc2c(C)noc2C)c1 | i
NC(=O)c1c(NC(=O)c2cc3ccccc3o2)sc2c1CCC2 | i
CCC(Oc1ccccc1)C(=O)N1CCN(c2ccccn2)CC1 (stereo unspecified) | 0.6
Cc1oc2c(CN3CCCC3)c(O)ccc2c(=O)c1-c1ccc(Cl)cc1 | 0.2
COc1cccc(C(=O)NCc2nnc(SCC(=O)Nc3nccs3)n2-c2ccccc2)c1 | i
C#CCN1CC(C)/C(=N/O)CC1C (stereo unspecified) | 1.2
CCCOc1ccc(C(=O)CCC(=O)OCC(=O)Nc2cc(C)on2)cc1 | 0.6
COc1cc2c(cc1NC(=O)CSc1ccccn1)oc1ccccc12 | 0.5
COCc1cc(=O)[nH]c(Nc2nc(C)c3cc(OC)ccc3n2)n1 | 0.5
COc1ccc(CCNC(=O)CN2CCN(S(=O)(=O)c3ccc(Cl)cc3)CC2)cc1OC | 0.9
CCOc1cccc(CN2CCN(c3cccc(C(F)(F)F)c3)CC2)c1O | 0.3
COc1ccc(CNc2oc(Cc3cccc4ccccc34)nc2C#N)cc1 | i
COc1ccc(OC)c(-c2oc3ccccc3c(=O)c2O)c1 | 0.3
COc1cc(CN(C)CCc2ccccn2)cc(OC)c1OC | i
Brc1ccccc1-c1nnc(COc2cccc3cccnc23)o1 | 6.0
Cc1nc(C)c(C(=O)C2=C(O)C(=O)N(CCN3CCOCC3)C2c2cccnc2)s1 (stereo unspecified) | i
Cc1cc(C)n(-c2cc(=O)n(C)c(=O)n2C)n1 | i
O=C1/C(=C/c2ccc(N3CCCC3)cc2)NC(=S)N1C1CC1 | i
CCC(C)(C)n1nnnc1C(c1ccc2ncccc2c1)N1CCN2CCCC2C1 (stereo unspecified) | 0.9
COc1ccc2c(c1)Cc1sc(NC(C)=O)nc1-2 | 0.1
O=C(N1CCCCC1)N1CCN(c2ccc(Cl)cc2)CC1 | i
Cc1oc(C(=O)O)cc1COc1ccc2c(C)cc(=O)oc2c1 | i
O=C(O)CSCC(=O)Nc1cccc2ccccc12 | i
O=S(=O)(c1ccccc1)N(C1=NCCS1)S(=O)(=O)c1ccccc1 | 0.8
O=C(CCCn1c(=O)[nH]c2cc(Cl)ccc2c1=O)NCCCN1CCCC1=O | 0.3
Cc1cc(C(F)(F)F)c2c(N)c(C(=O)Nc3cc(C)on3)sc2n1 | i
Cn1c(SCC(=O)NCc2ccccc2)nnc1-c1ccc(NC(=O)CCc2ccccc2)cc1 | 0.5
Fc1ccc(NC(=S)N/N=C/c2ccc(F)c(F)c2)c(F)c1 | 0.7
Cn1c(=S)[nH]c2ccccc21 | i
CCN(CC)S(=O)(=O)c1cccc(-c2nnc(SCc3nnc(-c4cccs4)o3)n2N)c1 | 1.1
Cc1ccc(S(=O)(=O)c2nc(-c3ccccc3)oc2NCc2cccnc2)cc1 | 0.1
O=C(c1ccco1)N1CCN(C(c2cccs2)c2nnnn2C2CCCC2)CC1 (stereo unspecified) | 1.7
CCOC(=O)C1=C(C)NC(=O)NC1c1cc(Br)c(O)c(OC)c1 (stereo unspecified) | 3.1
O=C(c1nn2c(C(F)(F)F)cc(-c3ccc(F)cc3)nc2c1Cl)N1CCOCC1 | 0.6
CCOC(=O)c1csc(NC(=O)C2CCCCC2)n1 | i
O=C(c1ccc(O)cc1)c1ccc(Cl)cc1 | i
Cc1nc2c(-c3ccccc3)c(C)[nH]n2c(=O)c1Cl | 0.5
CS(=O)(=O)N(CC(=O)N/N=C/c1cc2c(cc1Br)OCO2)c1ccccc1Br | i
O=C(CN1CCC(C(=O)c2ccc(Cl)cc2)CC1)Nc1ccc2c(c1)OCCO2 | i
CCCCc1cc(=O)oc2c(CN(C)C)c(O)ccc12 | 0.6
C/C=C/c1ccc(Oc2nnnn2-c2ccc(C(=O)O)cc2)c(OC)c1 | 1.8
C=CCSc1nc(-c2ccccc2)c(C#N)c(=O)[nH]1 | i
COc1cccc2cc(C(=O)C3=C(O)C(=O)N(CCN4CCOCC4)C3c3cccs3)oc12 (stereo unspecified) | 0.3

(more compounds)
SMILES | H5N1 antiviral
CCOC(=O)N1CCN(C(=O)c2cn(CC(C)C)c(=O)c3c2c2ccccc2n3C)CC1 | 1.1
O=c1c2ccccc2n2nnnc2n1-c1ccccc1 | 1.0
O=C(NCc1ccc(F)cc1)N[C@@H](Cc1ccccc1)C(=O)O | i
Cc1ccc(N(CCCCN2C(=O)c3ccccc3C2=O)C(=O)c2cccs2)cc1 | i
CC(C)c1ccc(C(=O)N2CCN(CCO)CC2)cc1 | 0.2
CC1CN(C(=O)c2cc(S(=O)(=O)N3CCCC3)c(Cl)cc2Cl)CC(C)O1 (stereo unspecified) | i
CN(CP(=O)(O)C(O)c1ccccc1)S(C)(=O)=O (stereo unspecified) | 0.7
COc1ccc(Cn2c(C3CC3)nc3ccc(NC(=O)C4CC4)cc3c2=O)cc1 | i
CN1CCN(c2nc(NCCOC34CC5CC(CC(C5)C3)C4)nc(OCC(F)(F)F)n2)CC1 | i
COc1ccccc1-n1c(=O)[nH]c2c(C(N)=O)nc(C3CCCCC3)nc21 | 0.1
Cc1ccccc1N(C(=O)CCC(=O)Nc1ccccn1)C(C(=O)NC(C)C)c1ccc(O)cc1 (stereo unspecified) | i
c1ccc(-n2nnnc2SCc2cccc3nsnc23)cc1 | 0.2
CCOc1ccc(-n2c(=O)[nH]cc(C(=O)N3CCCc4ccccc43)c2=O)cc1 | 1.3
CCCCC(=O)Nc1ccc(NC(=O)c2cc(OC)c(OC)c(OC)c2)cn1 | 0.1
O=C(CCCOc1ccc(Cl)cc1Cl)N1CCC2(CC1)OCCO2 | 2.1
COc1cc(OC)c(C2C(C(=O)O)c3ccccc3C(=O)N2C)cc1OC (stereo unspecified) | i
CCOC(=O)N1CCN(S(=O)(=O)c2ccc(C)cc2)C1c1ccc(OC)cc1 (stereo unspecified) | 4.7
CCOCCCNS(=O)(=O)c1ccc(-n2cnnn2)c(OC)c1 | 1.6
Cc1ccc2[nH]c(-c3cccc(N)c3)cc2c1 | 0.4
Fc1ccccc1NC(=S)NCCc1ccccc1 | i
COc1ccc(-c2cnn3c4c(c(C)nc23)CCN4C(C)C)cc1OC | 0.3
Cc1ccccc1NC(=O)c1ccccc1NS(=O)(=O)c1cccc2cccnc12 | 0.1
CSc1nnc([C@@H](N)Cc2ccccc2)o1 | 0.6
C(=N\n1cnnc1)/c1ccc2c(c1)OCO2 | i
CC(=O)c1sc(NC(=O)c2cccc3ccccc23)nc1C | i
Cc1ccc(C(=O)N2CCOCC2)cc1S(=O)(=O)Nc1cccc(C)c1C | i
Cc1ccc(CN2CCN(CC(=O)N3CCc4ccccc4C3)C2=O)cc1 | 0.2
Cc1c(C(=O)NCc2cccnc2)sc2ncn(CC(=O)N3CCCCC3C)c(=O)c12 (stereo unspecified) | 2.0
O=C(CCCN1C(=O)c2ccccc2C1=O)NC1=NCCS1 | 0.1
Cc1ccc(-n2cnc3c(sc4nccc(N(C)C)c43)c2=O)cc1 | i
CCCCC(=O)Nc1cccc(NC(=O)c2ccc3c(c2)OCO3)c1 | 1.7
Clc1ccc(-c2nnc(C34CC5CC(CC(C5)C3)C4)o2)cn1 | 0.7
CCCN1CCC2(CC1)C(C#N)=C(N)Oc1c2sc2nc(C)cc(C)c12 | i
COc1ccc(C2C3=C(CC(c4ccco4)CC3=O)Nc3ccccc3N2C(C)=O)cc1 (stereo unspecified) | 3.8
C=C(C)CSc1nc2c(c(=O)[nH]c(=O)n2C)n1CCC(C)C | 2.2
O=C(CSc1ncccc1C(=O)O)NCCC1=CCCCC1 | i
Fc1ccc(-c2nnc(CSc3nnc(-c4cccs4)o3)o2)cc1 | 0.2
CCCCOc1ccc(C2(C)CC(=O)NC2=O)cc1 (stereo unspecified) | 0.8
COc1ccc(C(=O)CC(c2ccccc2)C2C(=O)CCCC2=O)cc1 (stereo unspecified) | 0.4
CCN(CC)c1ccc(NC(=O)c2nc3nc(C)cc(C(F)F)n3n2)cc1 | 0.2
O=C1NC(=O)c2cc(NC(=O)C3CCCO3)ccc21 (stereo unspecified) | i
CCCS(=O)(=O)N1CCCC(C(=O)N2CCN(C(=O)OCC)CC2)C1 (stereo unspecified) | i
Cc1cc2cc(CCNC(=O)c3ccc(S(=O)(=O)N4CCOCC4)cc3)c(=O)[nH]c2cc1C | i
COC(=O)Cc1c(C)c2ccc(OCC(=O)N(C)C)cc2oc1=O | i
Cc1cc(C(=O)COC(=O)CCc2nc3ccccc3s2)c(C)n1C | 0.5
CCCc1cc(=O)[nH]c(SC(CC)C(=O)Nc2ccccc2C#N)n1 (stereo unspecified) | 0.3
O=C(O)c1ccccc1-c1ccccc1C(=O)Nc1ccccc1 | i
CC(NC(=O)CCc1ccc(S(=O)(=O)NC2CCCCC2)cc1)c1ccccc1 (stereo unspecified) | i
Nc1nonc1-c1noc(COc2ccccc2Cl)n1 | i
Cc1c(NS(=O)(=O)CC23CCC(CC2=O)C3(C)C)c(=O)n(-c2ccccc2)n1C (stereo unspecified) | i

15 structures from above, ordered by SMILES length, falling:
SMILES | H5N1 antiviral
Cc1cc2cc(CCNC(=O)c3ccc(S(=O)(=O)N4CCOCC4)cc3)c(=O)[nH]c2cc1C | i
Cc1c(NS(=O)(=O)CC23CCC(CC2=O)C3(C)C)c(=O)n(-c2ccccc2)n1C (stereo unspecified) | i
COc1ccc(C2C3=C(CC(c4ccco4)CC3=O)Nc3ccccc3N2C(C)=O)cc1 (stereo unspecified) | 3.8
CC(NC(=O)CCc1ccc(S(=O)(=O)NC2CCCCC2)cc1)c1ccccc1 (stereo unspecified) | i
CCCN1CCC2(CC1)C(C#N)=C(N)Oc1c2sc2nc(C)cc(C)c12 | i
CCCS(=O)(=O)N1CCCC(C(=O)N2CCN(C(=O)OCC)CC2)C1 (stereo unspecified) | i
CCCc1cc(=O)[nH]c(SC(CC)C(=O)Nc2ccccc2C#N)n1 (stereo unspecified) | 0.3
C=C(C)CSc1nc2c(c(=O)[nH]c(=O)n2C)n1CCC(C)C | 2.2
Cc1cc(C(=O)COC(=O)CCc2nc3ccccc3s2)c(C)n1C | 0.5
Fc1ccc(-c2nnc(CSc3nnc(-c4cccs4)o3)o2)cc1 | 0.2
O=C(O)c1ccccc1-c1ccccc1C(=O)Nc1ccccc1 | i
O=C1NC(=O)c2cc(NC(=O)C3CCCO3)ccc21 (stereo unspecified) | i
O=C(CSc1ncccc1C(=O)O)NCCC1=CCCCC1 | i
CCCCOc1ccc(C2(C)CC(=O)NC2=O)cc1 (stereo unspecified) | 0.8
Nc1nonc1-c1noc(COc2ccccc2Cl)n1 | i

Remaining list, next part:
SMILES | H5N1 antiviral
O=C(O)c1ccccc1C(=O)c1cccs1 | 0.3
CCCCS/C(N)=N/N=C/c1cc(C)ccc1O | 1.2
O=C(NC1CCCCC1)C1CC(=O)N(CCc2ccccc2)C1 (stereo unspecified) | 0.1
CCOc1ccc(-c2nc(N)nc(C)c2-c2ccc(OC)c(OC)c2)c(O)c1 | 0.6
COc1ccc(C(=O)CSc2nnc(Cc3ccccc3)o2)cc1 | 0.2
CC(C)C[C@H](N)c1nnc(S(=O)(=O)Cc2cccc(F)c2)o1 | i
CSc1nc(N(C)CCO)c2sc3nc(-c4ccco4)c4c(c3c2n1)CCC4 | i
CCCCOc1ccc(C(=O)Nn2cnnc2)cc1 | i
CCN(CC)C(=O)C1CCCN(c2ccc([N+](=O)[O-])cc2/C=N/NC(=O)c2ccc([N+](=O)[O-])cc2)C1 (stereo unspecified) | 0.5
CCOc1ccc2[nH]c(=O)c(CN(Cc3ccco3)C(=O)c3ccc(Br)cc3)cc2c1 | 0.2
Cc1ccc2nc(-c3ccc(SCC(=O)Nc4cc(C)on4)nc3)[nH]c2c1 | i
COC(=O)c1ccc(C(=O)OC)c(NC(=O)CSc2cccc[n+]2[O-])c1 | 0.4
COc1cc(-c2cc(C(F)(F)F)n3ncc(C(=O)O)c3n2)cc(OC)c1OC | 1.7
CCCC(=O)N=c1sc2cccc(F)c2n1C | 1.4
CCSCCOC(=O)C1=C(C)NC(=O)NC1c1cccc(OC)c1OC (stereo unspecified) | i
CCOc1ccc(OCC)c(NC(=O)C2CCCN(S(=O)(=O)c3c(C)n[nH]c3C)C2)c1 (stereo unspecified) | 0.1
C(=N\n1cnnc1)/c1nc2ccccc2[nH]1 | 1.9
CCNC(=O)n1nccc1C(C)Oc1ccccc1 (stereo unspecified) | i
Cc1cc(C)nc(N2CCC(C(=O)NCc3cccc(C(F)(F)F)c3)CC2)n1 | i
COC(=O)[C@H](CCSC)NC(=O)NCCc1ccccc1F | 1.0
O=C1CC(C(=O)Nc2ccc(F)c(Cl)c2)N=C(N2CCCCC2)N1 (stereo unspecified) | 0.3
COc1ccc(OC)c(C2C3=C(CCCC3=O)Nc3c2c(=O)n(C)c(=O)n3C)c1 (stereo unspecified) | 0.2
CCOc1ccc(-c2nc(C)sc2CC(=O)O)cc1 | i
CCc1nc2ccccc2c(C(=O)OCc2nnc(-c3ccccc3)o2)c1C | 1.7
CCC(=O)Nc1ccc(Cl)c(NC(=O)C(C)C)c1 | 0.8
CCOC(=O)N1CCN(C(=O)C2CCN(S(=O)(=O)c3c(C)cc(C)cc3C)CC2)CC1 | i
COCCCNC(=O)C(=O)NCCCOC(C)C | i
CCn1c(=O)cc(OCC(=O)N2CCN(Cc3ccc4c(c3)OCO4)CC2)c2ccccc21 | 2.4
Cc1ccc(-n2ncc(C#N)c2/N=C/N(C)C)cc1 | i
CCOC(=O)C1C(C)N=C2SCC(=O)N2C1c1cccc(Br)c1 (stereo unspecified) | 1.1

Screens (PubChem)
